TRPML1 blocker – qHTS for Inhibitors of the Human Mucolipin Transient Receptor Potential 1 (TRPML1); Mucolipin-1 (Homo sapiens), Q9GZU1; TRPML1-inducible cells, Ca2+ dye fluorescence, FDSS; active compounds read low; inhibition of EC80 agonist-evoked calcium signal; activity change, negative = inhibition, % (no concentration beside the values); actives 0.02% (n = 390,000); AID 624415, 2012; in the data active means activity change below about -50%; inconclusive means about -30% to -50%; inactive means above about -30%;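 note: stimulus is agonist 54-4 at its EC80 concentration; % is set by controls: 0 for no effect and ±100 for the full control effect; compound concentration not given in the record; the text of the record puts the active cut at -80%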
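Calcium fluorescence in TRPML1-DL cells induced overnight with Tet: a 110 s read after compound pin addition, then a 110 s antagonist read after challenge with 54-4 at 4 uM final (EC80).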
Six1-Eya2 inh – qHTS Assay for Inhibitors of the Six1/Eya2 Interaction; AlphaScreen GST-Six1/His-Eya2 binding, biochemical; active compounds read low; control for the full effect not named in the record; activity change, % (concentration not given with the values); actives 0.56% (n = 360,000); AID 651725, 2012; in the data active = activity change below about -65%; inconclusive = about -30% to -65%; inactive = above about -30%; note: % is set by controls: 0 for no effect and ±100 for the full control effect
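AlphaScreen with GST-Six1 and His-Eya2 (5X mix: 250 nM and 500 nM), glutathione donor and nickel acceptor beads; buffer 50 mM Tris pH 8.0, 300 mM NaCl, 1 mM TCEP; 1 h at 37 C in the dark.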
CtBP-E1A blk – qHTS Assay for Inhibitors of the CtBP/E1A Interaction; AlphaScreen GST-E1A/His-CtBP binding, 1536-well; active compounds read low; control for the full effect not named in the record; actives 0.49% (n = 340,000); AID 651724, 2012; activity change, % (concentration not given with the values); CtBP / adenovirus E1A interaction (AlphaScreen); in the data active means activity change below about -65%; inconclusive means about -30% to -65%; inactive means above about -30%; note: % is set by controls: 0 for no effect and ±100 for the full control effect
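GST-E1A and His-tagged CtBP (125 nM each as 5X stock) were preincubated with pin-transferred compound for 2 h at 37 °C in the dark, then glutathione donor and nickel acceptor beads were added for 1 h before AlphaScreen reading.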
D2 potentiator – Beta-Arrestin HTS for Positive Allosteric Modulators of the Human D2 Dopamine Receptor: Potentiators; D(2) dopamine receptor (Homo sapiens), P14416; DiscoveRx D2 beta-arrestin cells, luminescence, 90 min; 100% = 57 uM dopamine signal; potentiation, % (test concentration not listed); actives 0.23% (n = 360,000); active = potentiation of 50% or more; inconclusive = 30% to 50%; inactive = 30% or less;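 note: compound concentration not given in the record; tested on top of an EC20 dose of dopamine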
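PathHunter D2 cells, attached overnight at 37 deg C, received compound in DMSO plus dopamine at EC20 (50 nM final) for 90 min at 37 deg C. Beta-arrestin recruitment was read as luminescence after 1 h with detection reagent at ambient temperature.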
TRPML1 agonist – qHTS for Agonists of the Human Mucolipin Transient Receptor Potential 1 (TRPML1); actives 0.12% (n = 410,000); AID 624414, 2012; Mucolipin-1 (Homo sapiens), Q9GZU1; activation, % (concentration not given with the values); TRPML1-expressing cells, Ca2+ dye fluorescence, FDSS; host cell line not named in the record; reference of the full effect not given here; in the data active = activation above about 50%; inconclusive = about 30% to 50%; inactive = below about 30%; note: 0% is about no effect; the text of the record puts the active cut at 80%
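Tet-induced TRPML1-DL cells, 1,500 per well, cultured overnight, were loaded with a no-wash Ca2+ dye for 45–90 min. Calcium fluorescence was recorded on the FDSS for 110 s after compound addition, before the EC80 agonist (4 uM 54-4) was added.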
TRPV1 potentiator – HTS Assay for Compounds that Act as Potentiators of the Vanilloid Receptor 1; potentiation, % at 8.33 µM; TRPV1-expressing cells, Fluo-8 calcium influx, capsaicin EC20 potentiation; host cell line not named in the record; control for the full effect not named in the record; Transient receptor potential cation channel subfamily V member 1 (Homo sapiens), Q8NER1; AID 540277, 2011; actives 0.02% (n = 320,000); active means potentiation above 80%; inconclusive means 30% to 80%; inactive means below 30%; note: 0% is about no effect
Target sequence (Q8NER1 whole entry, looked up): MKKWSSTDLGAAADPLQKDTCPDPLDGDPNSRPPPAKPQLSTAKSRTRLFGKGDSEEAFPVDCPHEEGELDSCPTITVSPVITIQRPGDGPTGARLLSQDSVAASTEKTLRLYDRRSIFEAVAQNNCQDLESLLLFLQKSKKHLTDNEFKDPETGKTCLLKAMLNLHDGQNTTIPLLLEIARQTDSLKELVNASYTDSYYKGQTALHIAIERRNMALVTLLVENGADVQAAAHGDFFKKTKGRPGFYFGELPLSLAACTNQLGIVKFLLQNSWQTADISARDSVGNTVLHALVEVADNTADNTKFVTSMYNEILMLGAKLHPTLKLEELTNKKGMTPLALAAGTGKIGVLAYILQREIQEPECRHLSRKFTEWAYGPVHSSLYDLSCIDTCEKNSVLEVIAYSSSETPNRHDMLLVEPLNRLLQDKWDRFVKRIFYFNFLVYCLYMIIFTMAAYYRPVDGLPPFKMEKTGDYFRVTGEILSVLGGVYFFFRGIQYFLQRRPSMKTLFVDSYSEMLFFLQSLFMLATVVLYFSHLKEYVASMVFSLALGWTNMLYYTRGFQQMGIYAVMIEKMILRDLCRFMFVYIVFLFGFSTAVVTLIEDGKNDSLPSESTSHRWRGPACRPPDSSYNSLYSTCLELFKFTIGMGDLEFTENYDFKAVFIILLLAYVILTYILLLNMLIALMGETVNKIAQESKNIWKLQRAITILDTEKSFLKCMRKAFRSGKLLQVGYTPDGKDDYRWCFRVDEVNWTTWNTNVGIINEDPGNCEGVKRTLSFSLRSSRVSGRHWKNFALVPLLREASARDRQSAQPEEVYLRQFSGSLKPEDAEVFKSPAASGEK
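Fluo-8 calcium influx in TRPV1-expressing cells, kinetic read (ex 480/em 520 nm). Compound added and read 3 min for agonist activity, followed by capsaicin at EC20 final and 2 min further read for enhancement.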
* marks the source's active call; other numbers are inactive results; ? = inconclusive; nt = no result given; & = joins results of further samples.

The first 5 compounds as a preview:
SMILES	TRPML1 blocker	Six1-Eya2 inh	CtBP-E1A blk	D2 potentiator	TRPML1 agonist	TRPV1 potentiator
Cc1ccccc1CNC(=O)c1ccc2nc([C@@H]3O[C@H](CO)[C@H](O)[C@H](O)[C@H]3O)[nH]c2c1	?	-2.9	-7.1	-6.0	0.0	nt
Cc1cccc(N(CC(=O)N/N=C/c2ccc(C(=O)O)cc2)S(=O)(=O)c2ccccc2)c1C	-4.0	-0.2	-9.1	-3.9	2.2	nt
Cc1ccc(NC(=O)CSCC(=O)Nc2ccccc2C(=O)N2CCCCC2)cc1	1.5	-0.8	2.1	-13.6	0.6	-10.4
COc1cc(OC)c(C#N)c(S(=O)(=O)Cc2ccccc2)c1	15.8	1.3	11.8	11.6	-0.6	7.1
CC(=O)c1ccc(N(CC(=O)NCCc2ccccc2)C(=O)c2csnn2)cc1	39.5	-7.1	0.4	-6.5	0.1	3.2

Results, repeating the preview:
SMILES	TRPML1 blocker	Six1-Eya2 inh	CtBP-E1A blk	D2 potentiator	TRPML1 agonist	TRPV1 potentiator
Cc1ccccc1CNC(=O)c1ccc2nc([C@@H]3O[C@H](CO)[C@H](O)[C@H](O)[C@H]3O)[nH]c2c1	?	-2.9	-7.1	-6.0	0.0	nt
Cc1cccc(N(CC(=O)N/N=C/c2ccc(C(=O)O)cc2)S(=O)(=O)c2ccccc2)c1C	-4.0	-0.2	-9.1	-3.9	2.2	nt
Cc1ccc(NC(=O)CSCC(=O)Nc2ccccc2C(=O)N2CCCCC2)cc1	1.5	-0.8	2.1	-13.6	0.6	-10.4
COc1cc(OC)c(C#N)c(S(=O)(=O)Cc2ccccc2)c1	15.8	1.3	11.8	11.6	-0.6	7.1
CC(=O)c1ccc(N(CC(=O)NCCc2ccccc2)C(=O)c2csnn2)cc1	39.5	-7.1	0.4	-6.5	0.1	3.2
CCC(CC)c1nnc(NC(=O)c2ccc([N+](=O)[O-])cc2)s1	16.2	-5.6	-1.6	8.1	-1.9	21.7
Cc1cc(C)c(S(=O)(=O)N2CCOC2CNC(=O)C(=O)NCCc2ccc(S(N)(=O)=O)cc2)c(C)c1 (centres undefined)	25.8	2.7	3.6	-1.3	-0.3	-23.5
O=C(CSc1n[nH]c(-c2ccncc2)n1)NCCc1ccccc1	-9.7	-6.8	4.2	-6.5	-0.4	-7.7
COc1ccc(S(=O)(=O)N2CCC[C@H]2C(=O)N2CCC[C@H]2C(=O)N(C)Cc2ccccc2)cc1C	nt	-2.1	-2.6	nt	-1.0	nt
CCCCCCCCCCCCN1[C@@H](CC(=O)OC)c2cc(C(F)(F)F)ccc2S1(=O)=O	-0.1	9.2	16.1	-4.5	-0.3&-0.2	nt
COc1ccc(S(=O)(=O)N2CCCC(C(=O)Nc3cccnc3)C2)cc1Cl (centres undefined)	-13.4	3.0	-4.8	-6.8	-0.9	-3.2
COCC(C)NC(=O)CSc1nc(-c2ccccc2)c(-c2ccccc2)o1 (centres undefined)	5.1	-6.4	-8.9	-4.4	-0.2	-15.0
COc1ccccc1N(CC(=O)N/N=C/c1c(O)ccc2ccccc12)S(C)(=O)=O	34.3	-71.1*	?	-9.4	2.2	13.3
O=C(c1ccc(N2CCCC2=O)cc1)N1CCOCC1	2.9	4.0	8.0	0.1	0.5	-1.9
CC(=O)NC(Cc1c[nH]c2ccccc12)C(=O)N/N=C/c1ccccc1 (centres undefined)	-9.5	-6.0	21.5	-23.6	0.3	7.7
COc1ccc(CNC(=O)C2CCN(S(=O)(=O)c3ccc(-c4nn[nH]n4)cc3)CC2)cc1	-9.6	-3.6	1.7	-11.3	-0.4	1.0
CCOC(=O)N1CCN(S(=O)(=O)c2ccc(C(=O)N(CCN(CC)CC)c3nc4ccc(C)cc4s3)cc2)CC1	-13.5	-7.4	-5.0	-18.7	-0.5	11.1
O=C(CCCCCNS(=O)(=O)c1ccc(Br)cc1)NCCN1CCOCC1	-2.0	6.5	16.1	-12.9	-0.5	1.1
CC(C)C[C@H]1COc2cc(N3CCC[C@H]3CO)ccc2S(=O)(=O)N1	nt	4.8	2.4	nt	-0.5	nt
Cc1ccc(S(=O)(=O)Nc2cc(S(=O)(=O)N3CCOCC3)ccc2NCC2CCCO2)cc1 (centres undefined)	-9.1	-0.3	5.8	-6.7	1.8	-10.2
O=C(NCCS(=O)(=O)N1CCC2(CC1)OCCO2)c1ccccc1	14.9	-0.6	-13.2	-5.0	0.0	3.2
CS(=O)(=O)NCC(c1cccnc1)N1CCN(c2ccccc2F)CC1 (centres undefined)	2.5	9.1	nt	-8.9	0.0	9.5
Cc1c(NC(=O)c2cc3ccccc3o2)cccc1-n1cnnn1	-6.4	-5.2	3.7	-10.7	-0.1	nt
CCc1ccc(C2CC(c3ccc(F)cc3)Nc3nc(N)nn32)cc1 (centres undefined)	-4.4	16.8	28.5	-0.7	3.8	?
O=C(NS(=O)(=O)Nc1ccccn1)c1c[nH]c2ccccc12	-7.1	12.1	nt	-8.5	0.2	20.0
CC(Oc1ccc(C(=O)c2ccccc2)cc1)C(=O)Nc1ccc(S(N)(=O)=O)cc1 (centres undefined)	-6.4	-3.1	17.2	-26.4	18.8	-4.8
NC(=O)c1ccsc1NC(=O)COC(=O)CCOc1ccccc1	2.6	2.0	3.4	3.3	2.5	-5.1
CC(=O)Nc1ccc(S(=O)(=O)N2CCCCC2C(=O)O)cc1 (centres undefined)	-13.5	8.9	nt	-6.0	0.3	1.0
COc1ccccc1OCC(=O)Nc1nonc1NC(=O)COc1ccccc1OC	6.8	?	-27.8	-15.0	3.2	6.9
CCOc1cc(C2NC(=O)c3ccccc3O2)ccc1OC(C)C (centres undefined)	4.4	1.2	nt	-14.7	-0.5	-1.7
Cc1ccc(NC(=O)N2CCCn3c(SCC(=O)c4ccccc4)nnc32)cc1	8.3	7.6	nt	-20.0	-0.2	-8.4
CCCOc1ccc(/C=N/NC(=O)C(C)Sc2ccccn2)cc1OCC (centres undefined)	25.7	0.5	-9.5	-3.2	4.2	2.8
O=NN(CCF)C(=O)NC1CCS(=O)(=O)CC1	nt	8.6	4.0	nt	-0.3	nt
O=C(O)c1ccc(CSc2nc(-c3ccccc3)cc(C(F)(F)F)n2)cc1	-4.6	-8.1	-2.2	3.5	0.3	0.2
CC(=O)Nc1ccc(C(=O)Cn2c3[n+](c4c(F)c(F)ccc42)CCCCC3)cc1	-9.6	-3.0	nt	-7.9	2.8	1.9
COc1ccc(S(=O)(=O)N2CCCOC2CNC(=O)C(=O)NCCCn2ccnc2)cc1OC (centres undefined)	-5.2	0.0	0.6	-4.7	-0.4	-2.2
COc1ccc(CNC(=O)CN2C(=O)COc3ccc(S(=O)(=O)N4CCCCC4)cc32)cc1	10.3&-24.7	7.2	-4.4	-3.9	0.5&1.4	-2.1
CC(=O)Nc1ccc(S(=O)(=O)N2CCC(NC(=O)C(Cc3ccc(C)cc3)NC(C)=O)CC2)cc1 (centres undefined)	10.2	-4.2	-1.8	-3.0	0.7	18.5
CCn1c(SCC(=O)Nc2nccs2)nnc1C1CC1	19.2	2.8	-12.7	-10.7	0.6	13.9
COc1ccc(C(=O)N/N=C/c2ccc(OC(=O)c3ccccc3)cc2)cc1	6.0	-3.3	-1.8	10.9	0.2	-1.0
O=C(COC(=O)C1CC2CCCC(C1)C2=O)Nc1ccccc1 (centres undefined)	2.3	4.2	5.6	-15.9	0.3	-6.0
COc1ccc(CN(C(=O)c2nsc(Cl)c2Cl)C(C(=O)NC2CCCC2)c2ccc(OC)cc2)cc1 (centres undefined)	11.2	1.9	-1.8	-4.5	0.8	2.5
Nc1c2c3c(sc2nc(=O)n1N)CCCC3	-4.7	?	nt	-5.7	0.9	18.1
Cc1occc1-c1nnc(SCC(=O)NC2CCC(C)CC2)o1 (centres undefined)	-0.7	2.8	nt	-10.7	-0.5	?
CC(C)CCNC(=O)CCc1nnc(Cc2c[nH]c3ccccc23)o1	-6.8	0.0	8.6	-2.1	0.1	0.1

Single entries from the results shown.
O=NN(CCF)C(=O)NC1CCS(=O)(=O)CC1 in CtBP-E1A blk has 4.0
CC(=O)c1ccc(N(CC(=O)NCCc2ccccc2)C(=O)c2csnn2)cc1 in D2 potentiator has -6.5
CCC(CC)c1nnc(NC(=O)c2ccc([N+](=O)[O-])cc2)s1 in CtBP-E1A blk has -1.6

Carrying on.
SMILES	TRPML1 blocker	Six1-Eya2 inh	CtBP-E1A blk	D2 potentiator	TRPML1 agonist	TRPV1 potentiator
CCOc1ccc(NC(=O)CC2C(=O)N(c3ccccc3)C(=O)N2Cc2ccccn2)cc1 (centres undefined)	-4.8	-0.9	2.5	-9.5	0.0	-0.4
Cc1ccc(-c2noc(CNC(=O)c3ccoc3C)n2)cc1	5.8	-1.7	-1.5	2.3	-0.3	-9.1
CCSc1nc(O)c(C(c2cccc(OC)c2)c2c(O)nc(SCC)[nH]c2=O)c(=O)[nH]1	-6.7	-13.2	0.1	-3.1	0.0	7.3
COc1ccc(N2CC(C(=O)Nc3nc4ccc(F)cc4s3)CC2=O)c(OC)c1 (centres undefined)	-8.6	-8.2	-6.0	-0.3	0.3	-1.8
N#Cc1c(SCC(=O)Nc2ccccc2)nsc1SCC(=O)Nc1ccccc1	0.3	4.1	6.5	-2.5	0.8	15.0
CC(=O)COc1ccc2cc(-c3ccccc3)c(=O)oc2c1	0.6	11.4	10.1	-3.0	-0.5	-2.2
CC(=O)O/C(=C\c1cn(C(C)=O)c2ccccc12)C(=O)O	19.9	0.5	11.9	-3.6	-0.2	-7.4
Cc1ccc(S(=O)(=O)N2CCC3CC2c2cc(Cl)ccc23)cc1 (centres undefined)	29.6	10.1	4.3	-2.2	4.7	nt
Cc1ccc(S(=O)(=O)N2CCOCC2)cc1C(=O)OCC(=O)NCc1ccccc1	4.4	2.7	-3.6	9.8	0.1	-2.4
CC(C)C(NC(=O)c1ccco1)C(=O)NC1CCCCCC1 (centres undefined)	36.7	3.1	1.9	-1.4	-0.7	3.1
Cc1ccc(NC(=O)Cn2nc(-c3ccccc3)nc2-c2ccccc2)c(C)c1	-4.2	3.7	7.9	-0.9	2.1	-7.9
CCN(CC)C(=O)CSc1nnc2nnc3cc(OC)ccc3n12	27.1	-1.6	-0.4	-5.9	6.3	-14.7
O=C(NCCc1ccccc1F)c1[nH]c(C(F)(F)F)nc1-c1ccccc1	-2.3	-7.3	-7.5	-2.4	-0.2	nt
CCN1C(=O)/C(=C2/C(=O)N3c4c(cc(OC(C)=O)cc42)C(C)=CC3(C)C)SC1=S	23.6	-8.3	4.4	25.0	-0.7	-4.6
CNS(=O)(=O)c1cn(CC(=O)NCc2ccccc2OC)cc1S(=O)(=O)NC	-2.7	10.8	6.5	-0.2	1.2	0.5
